# Screens from PubChem BioAssay.
# NS1 inh: qHTS Assay for Inhibitors of Influenza NS1 Protein Function | Potency, µM (top dose mostly 46.1 µM), inactives show top-dose activity, positive = more growth | 270,000 tested, 0.4% active | S. cerevisiae slowed by influenza A NS1, growth recovery by OD600; further: actives are rising curves; nearly all actives have a fitted effect of over 50% in size
#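 A cell-based growth assay was used: compounds that relieve NS1-induced slow growth of budding yeast raise OD600. Assay medium was yeast nitrogen base with ammonium sulphate and -URA supplement, pH 6.0, with 2% galactose.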
# SARS PLpro yeast: qHTS of Yeast-based Assay for SARS-CoV PLP; S. cerevisiae expressing SARS-CoV PLpro, growth rescue; control for the full effect not named in the record; Potency, µM (titrated, usually from 32.9 µM), for inactives: top-dose activity, positive = growth rescue; 330,000 tested, 0.19% active; AID 485353, 2010; further: 0% is about no effect; nearly all actives have a fitted effect of over 55% in size; growth read by luminescence after 48 h
# Cruzain Triton: qHTS Assay for Promiscuous and Specific Inhibitors of Cruzain (with detergent); 200,000 tested, 0.43% active; purified cruzain, Z-FR-AMC fluorescence, 0.01% Triton; Potency, µM, inactives show max response, negative = inhibition, actives largely listed as inhibitors; AID 1478, 2009; active means well fitted curve in the direction sought with a large enough effect; inconclusive means small, poorly fitted or top-dose-only effect, or another doubt; inactive means no such curve, though single readings can be large; an effect the other way counts as inactive or inconclusive;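 further: plate controls were neutral wells for no effect and buffer without enzyme for full effect; nearly all actives have a fitted effect of over 40% in size; top concentration of the series not given in the record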
# Target sequence (P25779 123-467 limits assumed): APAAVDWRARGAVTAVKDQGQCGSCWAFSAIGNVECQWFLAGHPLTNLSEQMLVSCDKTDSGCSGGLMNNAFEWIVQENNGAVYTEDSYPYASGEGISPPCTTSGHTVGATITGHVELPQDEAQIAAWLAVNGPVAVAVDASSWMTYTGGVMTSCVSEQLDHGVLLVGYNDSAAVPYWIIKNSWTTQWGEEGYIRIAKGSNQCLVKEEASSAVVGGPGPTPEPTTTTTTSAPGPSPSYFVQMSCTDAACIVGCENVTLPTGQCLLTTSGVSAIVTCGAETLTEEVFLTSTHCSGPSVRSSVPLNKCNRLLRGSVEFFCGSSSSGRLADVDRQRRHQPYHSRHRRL
#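 Sodium acetate buffer (100 mM, pH 5.5) containing 5 mM DTT and 0.01% Triton X-100 hosted 1.5 nM cruzain and test compound for 15 min at room temperature. Cleavage of 2 uM Z-FR-AMC was then tracked by fluorescence.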
# LASV entry inh: qHTS for Inhibitors of binding or entry into cells for Lassa Virus; Lassa virus pseudotype entry inhibition, cell reporter; control for the full effect not named in the record; Potency, µM (doses to about 37.9 µM), for inactives: top-dose activity change, negative = inhibition, actives largely listed as inhibitors; 300,000 tested, 1.2% active; AID 540256, 2011; active means well fitted inhibition curve with a large enough effect; inconclusive means small, poorly fitted or top-dose-only effect, or effect the other way; inactive means flat fitted curve, though single readings scatter; tested in HEK293 cells; further: on the % scale 0 is the no-effect control and ±100 the full control effect; nearly all actives have a fitted effect of over 50% in size; luciferase read-out
# RE007 growth inh: qHTS Assay for Inhibitors of the HIV-1 protein Vpr | S. pombe RE007 Vpr strain, BacTiter-Glo ATP luminescence, 24 h; control for the full effect not named in the record | Potency, µM (series often up to 92.2 µM), inactives show at the highest dose activity change, negative = less growth | 360,000 tested, 0.21% active | AID 651644, 2012; active = well fitted falling curve with a large enough effect; inconclusive = small, poorly fitted or top-dose-only effect; inactive = no such curve, though single readings can be large or run the other way;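 further: on the % scale 0 is the no-effect control and ±100 the full control effect; nearly all actives have a fitted effect of over 50% in size; the assay follows cell death caused by Vpr and the record does not say whether a fall means rescue or toxicity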
#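 Fission yeast RE007 carrying one integrated HIV-1 vpr copy, seeded at OD 0.01 in PMG+AL medium with 23 nL pinned compound. Grown 24 h at 30 degrees; viability read by BacTiter-Glo luminescence after 5 min.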
# 2A StopGo: High Throughput Screening for Foot and Mouth Disease Virus Antivirals; Potency, µM (doses to about 57.9 µM), for the others: top-dose signal change, negative = less light; 410,000 tested, 1.2% active; human cells with a luciferase reporter of 2A StopGo recoding; control for the full effect not named in the record; active = well fitted falling curve with a large enough effect; inconclusive = small, poorly fitted or top-dose-only effect; inactive = no such curve, though single readings can be large or run the other way; tested in HEK293T cells; further: on the % scale 0 is the no-effect control and ±100 the full control effect; nearly all actives have a fitted effect of over 45% in size; luciferase light after 4 h
# Marburg entry inh: qHTS for inhibitors of binding or entry into cells for Marburg Virus; 300,000 tested, 1.8% active; Potency, µM (titrated, usually from 37.8 µM), inactives show top-dose activity change, negative = inhibition, usual class: inhibitors; Marburg virus pseudotyped entry inhibition, cell reporter; control for the full effect not named in the record; about a third of the inactives were read at about 46 µM; AID 540276, 2011; active = well fitted inhibition curve with a large enough effect; inconclusive = small, poorly fitted or top-dose-only effect, or effect the other way; inactive = flat fitted curve, though single readings scatter; tested in HEK293 cells; about a fifth of its hits are not listed in these tables; further: on the % scale 0 is the no-effect control and ±100 the full control effect; luciferase read-out
# Cruzain inh noDet: qHTS Assay for Promiscuous and Specific Inhibitors of Cruzain (without detergent); Cruzipain (Trypanosoma cruzi), P25779; purified cruzain, Z-FR-AMC fluorescence, no detergent; Potency, µM, for the others: max response, negative = inhibition, hits mostly inhibitors; 200,000 tested, 2.3% active; AID 1476, 2009; active means well fitted curve in the direction sought with a large enough effect; inconclusive means small, poorly fitted or top-dose-only effect, or another doubt; inactive means no such curve, though single readings can be large; an effect the other way counts as inactive or inconclusive;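 further: plate controls were enzyme without inhibitor for no effect and buffer without enzyme for full effect; nearly all actives have a fitted effect of over 40% in size; top concentration of the series not given in the record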
#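 Detergent-free condition (0.00005% Triton X-100) in acetate buffer pH 5.5 with DTT. 1.5 nM enzyme and compound were pre-mixed 15 min, then 2 uM Z-FR-AMC substrate added; reaction progress from fluorescence change between first and third reads (60 s).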
# * hit, by the source's call; ? = inconclusive; · = not tested or not shown; & = joins results of further samples; [ ] = another dose, or the depositor's remark. Unless noted, the call rests on the fitted dose curve; in most records, active means well fitted rising curve with a large enough effect; inconclusive means small, poorly fitted or top-dose-only effect; inactive means no such curve, though single readings can be large or run the other way. Potency means the concentration at half of the fitted maximal effect.
# The line under a structure holds: NS1 inh	SARS PLpro yeast	Cruzain Triton	LASV entry inh	RE007 growth inh	2A StopGo	Marburg entry inh	Cruzain inh noDet
COc1ccc(Cc2nc3ccc(C(=O)N4CCCC4)cc3o2)cc1
→ -6%	5%	·	·	1%	38%[activator]	·	·
Cc1ccccc1C(=O)NC1CCN(CC(=O)N2CCCCC2C)CC1 (stereo not given)
→ 1%	0%	·	2%	11%	-7%	3%[46.1 µM]	·
COc1ccc(NC(=O)CSC(C)c2nc3ccccc3c(=O)[nH]2)cc1 (stereo not given)
→ 12%	4%	·	6%	1%	-20%	24%	·
CCCCOc1ccc(C(=O)NCC(=O)NCC(=O)OCC)cc1
→ -1%[9.22 µM]	1%	1.7%	-19%	4%	-9%	-30%&-30%	-1%
O=c1cc(NC2CCCCCC2)[nH]c(=O)[nH]1
→ 0%	0%	-3.3%	13%	2%	-12%	24%	-8%
Cc1ccc(S(=O)(=O)Nc2ccc3c(c2)nc(CCN2CCN(c4ccccn4)CC2)n3C)cc1
→ -23%	-2%	·	·	-11%	-15%	·	·
COC(=O)c1sccc1NC(=O)c1csc(C)c1
→ -69%	-10%	-5.0%	-13%	?	-9%	?	6%
Nc1c(C(=O)c2ccccc2)sc(Nc2ccccc2)c1S(=O)(=O)c1ccccc1
→ 19%	1%	-2.0%	?	4%[3.69 µM]	23%	?	7.9µM*
O=C(CCCc1ccccc1)Nc1cccc([N+](=O)[O-])c1
→ -42%	-9%	·	·	-27%	68%[activator]	·	·
C/C(=N\NC(=O)c1ccc2c(c1)OCO2)c1cccnc1
→ -8%	-1%	·	·	-1%	46%[activator]	·	·
COc1cc(C)ccc1S(=O)(=O)NC1CC(C)(C)NC(C)(C)C1
→ 6%	5%	·	-12%[46.1 µM]	-10%	9%	-3%[46.1 µM]	·
CCOc1ccc2nc(-c3ccc(OC)c(OC)c3)cc(C(=O)O)c2c1
→ 1%	0%	-3.3%	-4%	-20%	4%	-20%	-3%
Nc1cccc2c(=O)[nH][nH]c(=O)c12
→ ·	·	7.0%	-19%[46.1 µM]	-6%	0%	?	9%
CCOC(=O)c1c(C)n(CC(O)CN(C)C)c2cc(Br)c(OC)cc12 (stereo not given)
→ 1%	-1%	·	-9%[46.1 µM]	-3%	-13%	?	·
CC(C)(C)c1nnc(NC(=O)NS(=O)(=O)c2ccccc2)s1
→ 0%	3%	4.1%	-2%	17%	-5%	?	-11%
CC(Sc1n[nH]c(=O)n1Cc1ccccc1)C(=O)NCC1CCCO1 (stereo not given)
→ ·	-5%	·	-10%	13%	-23%	-1%	·
CCN(CC)C(=O)CSc1nnc(-c2ccco2)n1N
→ 4%	4%	2.9%	1%	11%	0%	1%	-2%
O=C(/C(=N\Nc1ccc([N+](=O)[O-])cc1)Sc1nnnn1-c1ccccc1)c1ccccc1
→ -3%	0%	-7.8%	12%	17%	?	0.89µM*	?
CCc1[nH]nc(C(=O)N2CCCC(CNS(=O)(=O)c3cccs3)C2)c1C (stereo not given)
→ 1%	1%	·	·	10%	15%	·	·
COc1cc2c3nnc(-c4ccc(F)cc4)c-3cn(Cc3ccccc3)c2cc1OC
→ 5%	10%	-11%	·	9%	-18%	0%	-3%
CC(=NNS(=O)(=O)c1ccc([N+](=O)[O-])cc1)c1ccc(C)cc1
→ ·	·	·	2%[46.1 µM]	9%	50%[activator]	-21%[46.1 µM]	·
Clc1ccc(CCNC(c2nnc(-c3ccccc3)o2)c2ccccc2Cl)cc1 (stereo not given)
→ ·	·	2.0%	17%[46.1 µM]	·	-9%	-8%[46.1 µM]	-7%
Cc1cccc(OCCCCCN2CCOCC2)c1
→ -1%	7%	·	4%	7%	28%	9%	·
Cc1cc(C(N)=O)c2ccccc2n1
→ 3%	0%	1.3%	3%	5%	·	4%	-1%
Fc1ccc(-n2ncc3c(Nc4cccc(Cl)c4)ncnc32)cc1
→ ·	·	-6.5%	22%[46.1 µM]	·	22%	·	2%
CCC1=Nc2cc(C(=O)NCCCN3CCN(C)CC3)ccc2Sc2ccccc21
→ 8%	2%	·	·	-4%	32%	·	·
Cc1ccc(NC(=O)C2CC(=O)N(C(C)C)C2)cc1Cl (stereo not given)
→ 1%	-1%	·	-5%[46.1 µM]	-2%	-12%	-7%[46.1 µM]	·
COc1ccc(Cn2c(C(=O)O)c(CNCc3cccc(OC)c3)c3ccc(C)cc32)cc1
→ ·	·	-10%	?	·	-16%	·	?
O=C(O)CSCC(=O)Nc1ccccc1
→ ·	·	·	7%	0%	-2%	11%	·
COc1ccc(/C=N/NC(=O)C2C3CCCCC32)cc1OC (stereo not given)
→ ·	-2%	·	?	-15%	-6%	?	·
O=C(C[n+]1cc(-c2ccc(Cl)cc2)n2c1CCC2)Nc1nc(-c2ccc(F)cc2)cs1
→ 1%	-2%	·	·	15%	-7%	9%	·
CCN(C(=O)c1ccc(N2CC3CC(C2)c2cccc(=O)n2C3)c(NC(=O)c2ccncc2)c1)c1cccc(C)c1 (stereo not given)
→ 6%	3%	·	·	-17%	-10%	·	·
CCOC(=O)c1ccc(NC(=O)Cn2nnc(-c3ccccc3C)n2)cc1
→ -34%	-3%	-1.4%	-26%	15%	-11%	-29%	12%
O=S(=O)(CCN1CCN(c2ccccn2)CC1)c1ccc(F)cc1
→ -1%	-1%	·	7%	-15%	-3%	1%	·
COc1ccc(CCNC(=O)C(=O)c2c(C)[nH]c3ccccc23)cc1
→ -8%	2%	·	·	-14%	1%	·	·
CC(C)NC(=O)c1nn(C)c2ccccc12
→ 0%	16%	-1.7%	3%	-1%	-2%	-2%	15%
CCOc1ccc(-c2ncnn2-c2sc3c(c2C#N)CCCCC3)cc1
→ ·	·	-4.8%	12%[46.1 µM]	·	35%[activator]	·	-12%
COc1ccc(CNC(=O)COC(=O)c2n[nH]c3ccccc23)cc1
→ -7%	8%	0.2%	?	3%	?	-2%	-3%
O=C(C1=C[C@H](c2ccc(C(F)(F)F)cc2)C[C@H](OCCCCO)O1)N1CCOCC1
→ 1%	-1%	·	·	-5%	0%	·	·
Fc1ccc(N2Cc3ccsc3C=N2)cc1
→ ·	0%	·	3%[46.1 µM]	-17%	21%	19%[46.1 µM]	·

# An excerpt from above in order of molar mass, lowest first:
# The line under a structure holds: NS1 inh	SARS PLpro yeast	Cruzain Triton	LASV entry inh	RE007 growth inh	2A StopGo	Marburg entry inh	Cruzain inh noDet
Fc1ccc(N2Cc3ccsc3C=N2)cc1
→ ·	0%	·	3%[46.1 µM]	-17%	21%	19%[46.1 µM]	·
COc1ccc(CCNC(=O)C(=O)c2c(C)[nH]c3ccccc23)cc1
→ -8%	2%	·	·	-14%	1%	·	·
COc1ccc(CNC(=O)COC(=O)c2n[nH]c3ccccc23)cc1
→ -7%	8%	0.2%	?	3%	?	-2%	-3%
O=S(=O)(CCN1CCN(c2ccccn2)CC1)c1ccc(F)cc1
→ -1%	-1%	·	7%	-15%	-3%	1%	·
O=C(C1=C[C@H](c2ccc(C(F)(F)F)cc2)C[C@H](OCCCCO)O1)N1CCOCC1
→ 1%	-1%	·	·	-5%	0%	·	·
O=C(C[n+]1cc(-c2ccc(Cl)cc2)n2c1CCC2)Nc1nc(-c2ccc(F)cc2)cs1
→ 1%	-2%	·	·	15%	-7%	9%	·

# The list goes on.
# The line under a structure holds: NS1 inh	SARS PLpro yeast	Cruzain Triton	LASV entry inh	RE007 growth inh	2A StopGo	Marburg entry inh	Cruzain inh noDet
COc1ccc(C(=O)NNC(=O)Cc2ccc([N+](=O)[O-])cc2)cc1
→ 2%	-12%	-0.6%	14%	11%	-10%	-35%	-9%
COc1cc(OC)cc(C(=O)NNC(=O)C(=O)Nc2cc(OC)c(Cl)cc2OC)c1
→ 1%	-2%	·	·	-6%	-7%	·	·
C=CCOc1ccc(CN(C)CC(=O)N(CC(C)C)c2c(N)n(CC(C)C)c(=O)[nH]c2=O)cc1
→ -1%	-3%	9.9%	?	10%	-16%	?	1%
Cc1ccc(C)c2[nH]c(=O)c(CN(Cc3nnnn3C3CCCCC3)CC3CCCO3)cc12 (stereo not given)
→ -31%	0%	-7.9%	?	14%	-19%	?	?
COc1cccc(-c2cc(C(F)(F)F)nc(NCc3ccco3)n2)c1
→ -26%	21%	-15%	9%	-18%	?	?	-4%
CC1(C)Cc2nc3scc(NC(=O)c4ccccc4)c3cc2CO1
→ -2%	-1%	·	·	-14%	9%	·	·
Cc1nnc(SCC(=O)N(C)CC(=O)Nc2ccccc2Cl)s1
→ ·	0%	·	7%	-13%	5%	-17%[46.1 µM]	·
Cn1ncc(N=Cc2c(O)ccc3ccccc23)c1C(=O)N1CCOCC1
→ ·	·	·	2%	3%	-19%	-11%	·
Cc1ccc(-n2nc(C)c3c(C)c(CCC(=O)NCc4ccccc4Cl)c(C)nc32)cc1
→ ·	·	-3.6%	8%[46.1 µM]	·	-13%	24%[46.1 µM]	11%
O=C(NNC(=O)C12CC3CC(CC(C3)C1)C2)c1ccco1
→ 4%	1%	·	-3%[46.1 µM]	-4%	-14%	?	·
Cc1c(C(=O)N2CCOCC2)[nH]c2c1C(=O)CC(c1ccc(Cl)cc1)C2 (stereo not given)
→ ?	-1%	4.0%	3%	6%	?	?	2%
Nc1nonc1-n1nnc(C(=O)N/N=C/c2ccc(OCc3ccccc3)cc2)c1CNc1ccccc1
→ -31%	-5%	·	·	-8%	2%	·	·
Cc1ccc(C(=O)Nc2nc3c(s2)CCCC3)o1
→ -46%	-26%	-4.9%	?	?	-25%	?	-5%
